Screening data deposited in PubChem by National Center for Advancing Translational Sciences (NCATS).
Cruzain Triton: cruzain (T. cruzi) inhibition with detergent. hit rate 0.43% among 200,000. AID 1478. purified cruzain, Z-FR-AMC fluorescence, 0.01% Triton. Potency, µM, without a hit: max response, negative = inhibition, hits mostly inhibitors. P25779;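 note: plate controls were neutral wells for no effect and buffer without enzyme for full effect; nearly all actives have a fitted effect of over 40% in size; top concentration of the series not given in the record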
Target sequence (P25779 123-467 limits assumed): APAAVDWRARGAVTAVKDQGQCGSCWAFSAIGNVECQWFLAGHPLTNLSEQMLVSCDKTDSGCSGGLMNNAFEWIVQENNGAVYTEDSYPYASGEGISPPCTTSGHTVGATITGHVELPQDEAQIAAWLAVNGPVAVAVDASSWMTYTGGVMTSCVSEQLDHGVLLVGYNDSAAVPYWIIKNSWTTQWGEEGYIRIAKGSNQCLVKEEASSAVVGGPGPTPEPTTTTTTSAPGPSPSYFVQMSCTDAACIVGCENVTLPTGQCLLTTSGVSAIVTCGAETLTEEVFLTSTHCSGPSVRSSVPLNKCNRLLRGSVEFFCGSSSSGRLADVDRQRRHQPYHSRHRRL
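Detergent-containing run (0.01% Triton X-100) in acetate buffer pH 5.5 with 5 mM DTT: enzyme at 1.5 nM final, 15 min compound preincubation at room temperature, then 2 uM Z-FR-AMC substrate. Activity taken as 60 s fluorescence increase at 360/450 nm.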
NS1 function inh: inhibitors of influenza NS1 protein function | hit rate 0.4% among 270,000 | S. cerevisiae slowed by influenza A NS1, growth recovery by OD600 | Potency, µM (top dose mostly 46.1 µM), without a hit: at the top dose activity, positive = more growth; active means well fitted rising curve with a large enough effect; inconclusive means small, poorly fitted or top-dose-only effect; inactive means no such curve, though single readings can be large or run the other way; note: nearly all actives have a fitted effect of over 50% in size
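A cell-based growth assay was used: compounds that relieve NS1-induced slow growth of budding yeast raise OD600. Assay medium was yeast nitrogen base with ammonium sulphate and -URA supplement, pH 6.0, with 2% galactose.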
RE007 growth inh: less growth of the S. pombe RE007 Vpr strain; Potency, µM (doses to about 92.2 µM), for inactives: at the highest dose activity change, negative = less growth; hit rate 0.21% among 360,000; AID 651644; S. pombe RE007 Vpr strain, BacTiter-Glo ATP luminescence, 24 h; control for the full effect not named in the record; active = well fitted falling curve with a large enough effect; inconclusive = small, poorly fitted or top-dose-only effect; inactive = no such curve, though single readings can be large or run the other way;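 note: % is set by controls: 0 for no effect and ±100 for the full control effect; nearly all actives have a fitted effect of over 50% in size; the assay follows cell death caused by Vpr and the record does not say whether a fall means rescue or toxicity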
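Fission yeast RE007 carrying one integrated HIV-1 vpr copy, seeded at OD 0.01 in PMG+AL medium with 23 nL pinned compound. Grown 24 h at 30 degrees; viability read by BacTiter-Glo luminescence after 5 min.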
SARS PLP yeast: blocks SARS-CoV papain-like protease in a yeast assay. S. cerevisiae expressing SARS-CoV PLpro, growth rescue; control for the full effect not named in the record. Potency, µM (doses to about 32.9 µM), for inactives: at the top dose activity, positive = growth rescue. hit rate 0.19% among 330,000. AID 485353; active means well fitted rising curve with a large enough effect; inconclusive means small, poorly fitted or top-dose-only effect; inactive means no such curve, though single readings can be large or run the other way; note: 0% is about no effect; nearly all actives have a fitted effect of over 55% in size; growth read by luminescence after 48 h
LASV entry inh: Lassa virus entry inhibition; AID 540256; hit rate 1.2% among 300,000; Potency, µM (series often up to 37.9 µM), for the others: at the highest dose activity change, negative = inhibition, most hits filed as inhibitors; Lassa virus pseudotype entry inhibition, cell reporter; control for the full effect not named in the record; active means well fitted inhibition curve with a large enough effect; inconclusive means small, poorly fitted or top-dose-only effect, or effect the other way; inactive means flat fitted curve, though single readings scatter; tested in HEK293 cells; note: % is set by controls: 0 for no effect and ±100 for the full control effect; nearly all actives have a fitted effect of over 50% in size; luciferase read-out
Cruzain noTriton: inhibitors of Trypanosoma cruzi cruzain without detergent. P25779. purified cruzain, Z-FR-AMC fluorescence, no detergent. Potency, µM, for the others: max response, negative = inhibition, most hits filed as inhibitors. hit rate 2.3% among 200,000;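 note: plate controls were enzyme without inhibitor for no effect and buffer without enzyme for full effect; nearly all actives have a fitted effect of over 40% in size; top concentration of the series not given in the record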
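Detergent-free condition (0.00005% Triton X-100) in acetate buffer pH 5.5 with DTT. 1.5 nM enzyme and compound were pre-mixed 15 min, then 2 uM Z-FR-AMC substrate added; reaction progress from fluorescence change between first and third reads (60 s).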
StopGo reporter: lowers the luciferase signal of an FMDV 2A StopGo reporter; human cells with a luciferase reporter of 2A StopGo recoding; control for the full effect not named in the record; Potency, µM (top dose mostly 57.9 µM), for the others: top-dose signal change, negative = less light; hit rate 1.2% among 410,000; AID 1159524; active = well fitted falling curve with a large enough effect; inconclusive = small, poorly fitted or top-dose-only effect; inactive = no such curve, though single readings can be large or run the other way; tested in HEK293T cells; note: % is set by controls: 0 for no effect and ±100 for the full control effect; nearly all actives have a fitted effect of over 45% in size; luciferase light after 4 h
MARV entry inh: Marburg virus entry inhibition; Marburg virus pseudotyped entry inhibition, cell reporter; control for the full effect not named in the record; about a third of the inactives were read at about 46 µM; Potency, µM (doses to about 37.8 µM), inactives show at the top dose activity change, negative = inhibition, usual class: inhibitors; hit rate 1.8% among 300,000; active = well fitted inhibition curve with a large enough effect; inconclusive = small, poorly fitted or top-dose-only effect, or effect the other way; inactive = flat fitted curve, though single readings scatter; tested in HEK293 cells; about a fifth of its hits are not listed in these tables; note: % is set by controls: 0 for no effect and ±100 for the full control effect; luciferase read-out
* marks the source's active call; other numbers are inactive results; u = inconclusive; x = no result given; & = joins results of further samples; [ ] = another dose, or the depositor's remark. Unless noted, calls come from the whole dose curve; as a rule, active = well fitted curve in the direction sought with a large enough effect; inconclusive = small, poorly fitted or top-dose-only effect, or another doubt; inactive = no such curve, though single readings can be large; an effect the other way counts as inactive or inconclusive. Potency is the fitted concentration of half-maximal effect.

SMILES	Cruzain Triton	NS1 function inh	RE007 growth inh	SARS PLP yeast	LASV entry inh	Cruzain noTriton	StopGo reporter	MARV entry inh
CCOC(=O)c1c(C)c(-c2ccccc2)n(CC(=O)Nc2cc(OC)cc(OC)c2)c1C	-7.3%	x	x	x	x	-7%	u	-12%[46.1 µM]
Cc1cc(C)cc(CC2CC(=O)N(c3ccc(Cl)cn3)C2=O)c1 (stereo unspecified)	2.0%	-13%	-6%	1%	8%	-8%	-20%	-1%
CCOC(=O)c1c(NC(=S)NCc2ccccc2)sc2c1CCN(C(=O)OCC)C2	x	6%	10%	0%	23%[46.1 µM]	x	-7%	-12%[46.1 µM]
CCOC(=O)C1CCN(C(=O)Cn2c(=O)oc3cc(S(=O)(=O)N4CCC(C)CC4)ccc32)CC1	0.8%	x	x	x	3%[46.1 µM]	-5%	-23%	3%[46.1 µM]
Cc1cc(Nc2cccc([N+](=O)[O-])c2)c2cccc(C)c2n1	x	-3%	-16%	0%	20%[46.1 µM]	x	u	u
O=C(N1CCCCCC1)N1CCN(S(=O)(=O)c2ccccc2)CC1	4.4%	-1%	4%	6%	5%	-3%	-7%	-5%
COc1ccccc1-c1nc2ccccc2c(=O)n1O	x	1%	-23%	0%	12%	x	5%	11%
COC(=O)C(O)(NC(=O)OCc1ccccc1)C(F)(F)F (stereo unspecified)	1.8%	-3%	-1%	-2%	8%	7%	-8%	11%
COCCCn1c(=O)c2sccc2n2c(CCCC(=O)Nc3cc(C)cc(C)c3)nnc12	0.7%	x	x	x	0%[46.1 µM]	3%	-15%	x
O=C(O)c1ccccc1C(=O)NNc1ccc(Cl)cc1Cl	x	-9%	47%	-1%	x	x	-9%	x
COC(=O)c1cc(Nc2cc(C)c3ccc(O)cc3n2)cc(C(=O)OC)c1	x	6%	2%	0%	u	x	-19%	-15%
CC1CC(C)CN(C(=O)COC(=O)c2ccc(Cl)nc2)C1 (stereo unspecified)	x	x	35%	3%	-4%	x	3%	-1%[46.1 µM]
O=C(NCCc1ccccc1)C(=O)NC1CCCCC1	-3.7%	6%	14%	0%	16%	6%	x	-2%
O=C(Cn1cnc([N+](=O)[O-])n1)N/N=C/c1cc(Cl)ccc1O	x	x	6%	16%	u	x	-3%	u
COc1ccc(Cl)cc1S(=O)(=O)N1CCC(C(=O)NCCc2ccccc2)CC1	x	0%	-9%	2%	u	x	0%	u
COc1ccc2oc(C(=O)OCC(=O)Nc3ccc(C(=O)N(C)C)cc3)c(C)c2c1	x	2%	-5%	-5%	x	x	34%[activator]	x
CSc1nc(C(=O)N2CCc3c([nH]c4ccccc34)C2c2ccccn2)cs1 (stereo unspecified)	x	-5%	0%	-3%	-11%	x	3%	u
Cc1nc(-c2ccc(NC(=O)c3ccco3)cc2)cs1	x	-63%	u	-7%	x	x	11µM*	x
CC(C)c1nc(CNC(=O)c2cc(COc3c(F)cccc3F)on2)cs1	x	-2%	-8%	0%	0%	x	-10%	-24%[46.1 µM]
O=C(COC(=O)c1cc[n+]([O-])cc1)Nc1ccc([N+](=O)[O-])cc1	x	x	5%	6%	11%	x	-10%	9%[46.1 µM]
COc1ccc(NC(=O)COC(=O)CCNS(=O)(=O)c2ccccc2)cc1OC	x	0%	3%	-5%	4%[46.1 µM]	x	-20%	-6%[46.1 µM]
COc1ccccc1CNC(=O)CN1CCC(NC(=O)c2ccccc2F)CC1	-0.1%	8%	-1%	1%	-6%	4%	5%	20%
CCOC(=O)c1ccc(NC(=O)CSc2nc(N3CCOCC3)nc(N3CCOCC3)n2)cc1	x	17%	3%	-2%	x	x	3%	x
COc1ccccc1C(=O)COC(=O)CN1C(=O)c2ccccc2C1=O	x	-24%	-3%	u	x	x	-29%	x
COc1ccc(-n2c(=O)c3ccccc3n(CC(=O)NC3CCCCC3)c2=O)c(OC)c1	1.8%	-4%	3%	4%	4%	1%	1%	u
COc1ccccc1NC(=O)Cn1nc2c3cc(F)ccc3n(Cc3cccc(C)c3)cc-2c1=O	0.4%	x	x	x	0%[46.1 µM]	-2%	-10%	x
N#C/C(=C\c1ccc(-c2ccccc2[N+](=O)[O-])o1)C(=O)N1CCOCC1	x	x	-4%	-3%	27%[46.1 µM]	x	15%	14%[46.1 µM]
O=C(NC1CCSC1=O)c1ccc(Cl)cc1 (stereo unspecified)	-2.5%	1%	-5%	-8%	6%	-3%	-9%	3%
Cc1ccc(CN2CCCNC2=O)cc1	4.6%	1%	14%	10%	3%	17%	u	-7%
Cc1ccc(N2CC(C(=O)Nc3nccs3)CC2=O)cc1Cl (stereo unspecified)	7.6%	7%	4%	-19%	-2%	-1%	11%	4%
COc1cc2c(cc1OC)C1(C)N(CC2)C(C(C)=O)=NN1c1ccc(Cl)cc1 (stereo unspecified)	x	8%	5%	0%	x	x	-22%	x
COc1ccccc1N1C(=O)C2C(C(=O)c3ccccc3)=NN(c3ccc(Br)cc3)C2C1=O (stereo unspecified)	x	4%	-5%	-4%	19%[46.1 µM]	x	1%	u
O=C1CCCC2(O)C1C(c1cccc(Br)c1)NC(=O)N2Cc1ccccc1 (stereo unspecified)	6.2%	8%	10%	15%	x	-1%	9%	x
CCCCNC(=O)C1C2C=CC(C2)C1C(=O)O (stereo unspecified)	-0.6%	-12%	-3%	-6%	3%	7%	-17%	u
COc1cccc(NC(=O)C2C3C=CC4(O3)C2C(=O)N(CCCN2CCCC(C)C2)C4C(=O)NC2CCCCC2C)c1 (stereo unspecified)	x	-10%	4%	-1%	x	x	-10%	-11%[46.1 µM]
CCn1cc([N+](=O)[O-])c(C(=O)N2CCCc3ccccc32)n1	x	9%	0%	0%	1%[46.1 µM]	x	-8%	20%[46.1 µM]
CC(C)(C)c1csc(NC(=O)c2cccnc2Cl)n1	x	x	14%	x	7%	x	34%[activator]	10%
C=CCNc1ccc(F)c(F)c1N1CCCCCC1=O	2.5%	-2%	6%	1%	-3%	4%	-9%	10%
CC(C)(C)NC(=O)C(c1ccncc1)N(Cc1cccs1)C(=O)Cn1nnc(-c2ccc(F)cc2)n1 (stereo unspecified)	-11%	16%	4%	3%	-13%	u	-18%	u
COc1ccc(NC(=O)CN(C)C(=O)CCSc2ccc(F)cc2)cc1	x	x	6%	-1%	-4%	x	-28%	18%
Cc1ccc2c(CC(=O)Nc3nnc(C(C)C)s3)coc2c1C	-3.2%	x	x	x	4%[46.1 µM]	-3%	0%	21%[46.1 µM]
CSCC[C@H](NC(=O)NCCc1ccc(F)cc1)C(=O)O	0.7%	-4%	10%	-4%	-12%	-9%	-27%	12%
O=C(NN1CCOCC1)NC12CC3CC(CC(C3)C1)C2	x	-2%	3%	0%	u	x	-14%	-7%
OC1(c2ccc(Br)cc2)CCN(Cc2cccc(Br)c2)CC1	x	-18%	2%	-4%	x	x	0%	x
CCn1c(C(=O)N2CCC(C(=O)NCc3ccc(OC)cc3)CC2)cc2sccc21	x	-2%	13%	0%	u	x	-18%	-5%[46.1 µM]
CCOc1cc(S(=O)(=O)N2CCC(C(N)=O)CC2)ccc1F	2.1%	-2%	18%	5%	2%	10%	37%[activator]	11%
O=C(c1cc(-c2ccncc2)nc2ccc(Cl)cc12)N1CCN(C(=O)C2CCCO2)CC1 (stereo unspecified)	1.9%	-5%	-4%	-10%	u	22%	-12%	-12%
c1ccc(-c2ccc(-c3nc(-c4cccnc4)no3)cc2)cc1	-1.2%	-46%	6%	2%	u	3%	x	u
COc1ccc(C(C(=O)NCC2CCCO2)N(C(=O)CNC(=O)c2ccco2)c2cc(C)ccc2C)cc1OC (stereo unspecified)	x	-12%	10%	3%	-7%	x	2%	3%[46.1 µM]
CCN(CC)C(=O)c1cccc(NC(=O)C2CCN(C(=O)c3cccs3)CC2)c1	x	x	27%	0%	2%	x	-7%	11%
CCOC(=O)c1sc(N=NC2=C(O)CC(C)(C)CC2=O)c(C(=O)OCC)c1C	x	x	2%	9%	-1%	x	4%	17%
O=C(O)CSC1CC(=O)N(c2cccc(Cl)c2)C1=O (stereo unspecified)	5.0%	-11%	0%	-29%	-3%	-6%	4%	1%
CN(C)S(=O)(=O)c1ccc(C(=O)NCc2ccccc2)cc1	-0.6%	-15%	-2%	-3%	-1%	5%	3%	0%
CCOc1ccc(CCNC(=O)COC(=O)c2cccnc2Cl)cc1OCC	x	x	5%	3%	10%	x	0%	14%[46.1 µM]
CCOc1ccccc1NC(=O)NC1CC2CCCC(C1)N2Cc1nnnn1CCc1ccccc1 (stereo unspecified)	-1.4%	-26%	-10%	11%	0%	18%	-4%	-30%&-30%[46.1 µM]
Cc1nn(-c2ccccc2)c(C)c1C(=O)NCc1ccc(F)cc1	0.5%	-10%	2%	-8%	10%	6%	-8%	u
O=C(c1ccco1)N1CCN(C(=O)N2CCOCC2)CC1	3.0%	11%	15%	25%	-1%	1%	x	13%
O=C(O)CCC(=O)Nc1sc2c(c1C(=O)Nc1cccc3ccccc13)CCCCC2	-4.8%	23%	-2%	-10%	-4%	u	-6%	4%&4%
CCCCC(=O)Nc1nnc(-c2ccco2)o1	x	x	-15%	1%	u	x	-11%	5%[46.1 µM]
CCOC(=O)c1ccc(N=c2sc(C(=O)OC)cc(=O)n2C2CC2)cc1	4.5%	-4%	3%	6%	-1%	-6%	u	-1%
CCOC(=O)Cn1c(CN2CCc3ccccc3C2)nc2c1c(=O)n(C)c(=O)n2C	-2.4%	-9%	-2%	2%	x	9%	u	2%
CCOc1cc(CNCc2ccncc2)cc(Br)c1OCc1ccc(F)cc1	-3.8%	-13%	-11%	-6%	-18%	7%	16µM*	u
COc1ccc(CN2CCN(C(=O)Cn3ncn4cccc4c3=O)CC2)c(OC)c1OC	x	7%	3%	-1%	x	x	u	x
